High-throughput results deposited in PubChem by National Center for Advancing Translational Sciences (NCATS).
Methyltransferases – Primary Screen for Target Class Profiling of Small Molecule Inhibitors of Methyltransferases; calls only at 40 µM; purified enzyme, MTase-Glo SAH luminescence; hits give low values; 25,000 tested, 3.9% active; AID 1745853, 2022; active = -50% or lower on at least one of six enzymes; inconclusive = the cases between; inactive = as a rule above -30% on all six;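 further: enzymes were COMT GAMT GNMT HNMT NNMT and PNMT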
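Each enzyme was assayed with SAM and its substrate. SAH formation detected by MTase-Glo luminescence; single-point 40 uM screen[…].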
Calls only; i = inactive; ? = inconclusive; + = active, no number. On the % scale 0 is the no-effect control and ±100 the full control effect.

The first two compounds, ahead of the listing:
canonical_smiles	Methyltransferases
Cc1ccc(C2=NC3(CCN(C(=O)c4cnccn4)CC3)ON2)cc1	i
CCn1cc(-c2ccnc3[nH]c(-c4cccc(CN(C)C)c4)cc23)c(-c2ccc(NC(=O)N(C)C)cc2)n1	+

The list itself, previewed entries included:
canonical_smiles	Methyltransferases
Cc1ccc(C2=NC3(CCN(C(=O)c4cnccn4)CC3)ON2)cc1	i
CCn1cc(-c2ccnc3[nH]c(-c4cccc(CN(C)C)c4)cc23)c(-c2ccc(NC(=O)N(C)C)cc2)n1	+
NC(=O)c1ccccc1Nc1ccnc(Nc2cccc(O)c2)n1	+
CNC(=O)CN1CCC(Oc2cc3c(Nc4cccc(Cl)c4F)ncnc3cc2OC)CC1	+
NC(=O)c1cccc2[nH]c(-c3ccc([C@@H]4CCCN4)cc3F)nc12	+
CSc1cccc(N2C(=O)c3ccc(-c4ccco4)n3CC2(C)C(=O)NC2CCCC2)c1 (stereo unspecified)	i
COc1cc2ncnc(N3CCC(Oc4cnc5ccccc5n4)C3)c2cc1OC (stereo unspecified)	i
COc1ccc(CC2NCCc3c2[nH]c2ccc(C)cc32)cc1OC (stereo unspecified)	i
O=C(Cc1ccc(-c2ccc(OCCN3CCOCC3)cc2)cn1)NCc1ccccc1	i
CC(=O)c1ccc2c(c1)N(CCCN(C)C)c1ccccc1S2	?
CCn1c(C(=O)N(C2CC2)C2CC2)cc2c3c(ncn3C)c(Nc3cc(C)n(C)n3)nc21	i
CNC(=O)c1ccc2c(c1)CCO[C@H]2CCN1CCN(c2ccc(C(N)=O)cc2)CC1	i
Cc1cc(OCCN2CCOCC2)nn1-c1ccc2ccccc2c1	i
CCCN1CCC[C@@H](c2cccc(S(C)(=O)=O)c2)C1	i
CN(C)CC(=O)N1CCC(c2ccc(NC(=O)c3ncc(C#N)[nH]3)c(C3=CCCCC3)c2)CC1	i
OC1CCC(Nc2ncc3nc(Nc4c(F)cc(F)cc4F)n([C@H]4CCOC4)c3n2)CC1 (stereo partly specified)	i
Cc1[nH]cnc1C1CCN(c2nc3cccc4c3n2CCC4=O)CC1	+
CN(C)[C@@H](CCOc1cccc2ccccc12)c1ccccc1	?
Cn1cc(-c2ccc3nnc(C(F)(F)c4ccc5ncccc5c4)n3n2)cn1	i
COc1cc2c(Oc3ccc(NC(=O)C4(C(=O)Nc5ccc(F)cc5)CC4)cc3F)ccnc2cc1OCCCN1CCOCC1	i

Next records:
canonical_smiles	Methyltransferases
CC(C)N(C[C@H]1O[C@@H](n2cnc3c(N)ncnc32)[C@H](O)[C@@H]1O)C1CC(CCc2nc3ccc(C(C)(C)C)cc3[nH]2)C1 (stereo partly specified)	+
C[C@@H](N)C1CCC(C(=O)Nc2ccncc2)CC1 (stereo partly specified)	i
NCc1ccc(Nc2ncc(F)c(Nc3ccccc3)n2)cc1	i
CCC(CC)Nc1nc(C)c(-c2ccc(OC(F)(F)F)cc2OC)nc1OC	i
COc1cc(/C=C2\CCCN([C@@H](C)c3ccc(F)cc3)C2=O)ccc1-n1cnc(C)c1	+
COCCN(C)Cc1ccc2nc3sc(C(=O)N(C)C4CCCCC4)cn3c2c1	+
COc1ccc(CNC(=O)c2cc(-c3cncc(C)c3)ncc2-c2nccs2)nc1OC	i
Cc1nc2ccccn2c(=O)c1CCN1CCC(C(=O)c2ccc(F)cc2)CC1	i
O=C(O)[C@H]1Cc2ccccc2CN1	i
Cc1cc(Nc2ncc(Cl)c(Nc3ccccc3S(=O)(=O)C(C)C)n2)c(OC(C)C)cc1C1CCNCC1	?
O=C(C1CCCCC1)N(CCN1CCN(c2ccccc2O)CC1)c1ccccn1	i
Cc1cc(OCc2nnc(SC3CCCC3)n2-c2cccnc2)ccc1-c1ccc(S(C)(=O)=O)cc1	?
CC(=O)OC12COC1CC(O)C1(C)C(=O)C(O)C3=C(C)C(OC(=O)C(O)C(NC(=O)OC(C)(C)C)c4ccccc4)CC(O)(C(OC(=O)c4ccccc4)C21)C3(C)C (stereo unspecified)	?
CCN(Cc1cc(Nc2nc(C)cn3c(-c4cn[nH]c4)cnc23)sn1)C(C)(C)CO	?
COc1cccc(OC)c1-c1ccc(C[C@H](NC(=O)c2c(Cl)cccc2Cl)C(=O)O)cc1	i
COc1cc(C(=O)NC(=S)Nc2cccc(NC(=O)c3ccccc3)c2)cc(OC)c1OC	i
C[C@@H]1CC[C@]2(C(=O)O[C@@H]3O[C@H](CO[C@@H]4O[C@H](CO)[C@@H](O[C@@H]5O[C@@H](C)[C@H](O)[C@@H](O)[C@H]5O)[C@H](O)[C@H]4O)[C@@H](O)[C@H](O)[C@H]3O)CC[C@]3(C)C(=CCC4[C@@]5(C)C[C@@H](O)[C@H](O)[C@@](C)(CO)C5CC[C@]43C)C2[C@H]1C (stereo partly specified)	?
O=C(c1ccc(F)cc1)C1CCN(CCn2c(=O)[nH]c3ccccc3c2=O)CC1	i
O=C1Cc2c([nH]c3ccc(Br)cc23)-c2ncccc2N1	+
N#Cc1ccc2ncnc(NCCc3ccccc3)c2c1	i

Grouped by structure: those above containing a cyano group (2)
canonical_smiles	Methyltransferases
CN(C)CC(=O)N1CCC(c2ccc(NC(=O)c3ncc(C#N)[nH]3)c(C3=CCCCC3)c2)CC1	i
N#Cc1ccc2ncnc(NCCc3ccccc3)c2c1	i

Among those listed so far, these contain a tert-butyl group:
canonical_smiles	Methyltransferases
CC(C)N(C[C@H]1O[C@@H](n2cnc3c(N)ncnc32)[C@H](O)[C@@H]1O)C1CC(CCc2nc3ccc(C(C)(C)C)cc3[nH]2)C1 (stereo partly specified)	+
CC(=O)OC12COC1CC(O)C1(C)C(=O)C(O)C3=C(C)C(OC(=O)C(O)C(NC(=O)OC(C)(C)C)c4ccccc4)CC(O)(C(OC(=O)c4ccccc4)C21)C3(C)C (stereo unspecified)	?

Further compounds
canonical_smiles	Methyltransferases
Cc1cc(-c2nncc3c(C(C)(C)C)c(OCc4ncnn4C)nn23)no1	i
COc1ccccc1N1CCN(CCCNc2cc(=O)n(C)c(=O)n2C)CC1	i
c1ccc(CN(CC2=NCCN2)c2ccccc2)cc1	i
C[C@@H]1[C@H](C)CC[C@]2(C(=O)O[C@@H]3O[C@@H](CO[C@@H]4O[C@@H](CO)[C@@H](O[C@@H]5O[C@@H](C)[C@@H](O)[C@@H](O)[C@H]5O)[C@@H](O)[C@H]4O)[C@@H](O)[C@@H](O)[C@H]3O)CC[C@]3(C)C(=CC[C@H]4[C@@]5(C)C[C@@H](O)[C@@H](O)[C@](C)(CO)[C@@H]5CC[C@@]43C)[C@H]12	?
O=C(c1ccc(NS(=O)(=O)c2cccc3cccnc23)cc1)N1CCN(CC2CC2)CC1	i
CCCCNC(=O)[C@@H]1Cc2ccccc2N1C(=O)[C@@H](N)CC	i
Cc1ccc(N2CCN(CCC3NC(=O)c4ccccc43)CC2)cc1C (stereo unspecified)	i
CCCSc1nc(NC2CC2c2ccc(F)c(F)c2)c2nnn(C3CC(OCCO)C(O)C3O)c2n1 (stereo unspecified)	?
CC#CCn1c(N2CCC[C@@H](N)C2)nc2c1c(=O)n(Cc1nc(C)c3ccccc3n1)c(=O)n2C	?
CCOC(=O)N1CCC(NCCNC(=O)c2ccccc2C)CC1	i
Cc1c(NC(=O)OC[C@@H]2COCCN2)cn2ncnc(Nc3ccc4c(cnn4Cc4cccc(F)c4)c3)c12	?
CC1CCN(c2cc(N3CCN(C)CC3)ccc2NC(=O)c2cc(C#N)c[nH]2)CC1	i
Nc1nc(Nc2ccc3c(c2)CCC(N2CCCC2)CC3)nn1-c1cc2c(nn1)-c1ccccc1CCC2 (stereo unspecified)	+
COc1ccc(-c2cc3c(C)nc(N)nc3n(C3CCC(OCCO)CC3)c2=O)cn1 (stereo unspecified)	?
CC(C)Nc1cc(C(F)(F)F)cc2nc(NC(=O)c3cccnc3)nn12	i
CCN1C(=O)c2cc(C(=O)NCc3cccc(C)c3)nn2CC1(C)C(=O)NC1CCCC1 (stereo unspecified)	i
C[C@@H]1COC(Nc2ccc3ncnc(Nc4ccc(OCc5nccs5)c(Cl)c4)c3c2)=N1	?
CC(Oc1cc(-n2cnc3ccc(CN4CCN(C)CC4)cc32)sc1C(N)=O)c1ccccc1C(F)(F)F (stereo unspecified)	+
CCCn1cnc2c1c(=O)n(CCCCC(C)=O)c(=O)n2C	i
CCCCCCCCCCCCCCC[C@H](O)[C@H](N)CO	i

Gathered by group: those above with an aryl thioether with sulfur outside any ring.
canonical_smiles	Methyltransferases
CSc1cccc(N2C(=O)c3ccc(-c4ccco4)n3CC2(C)C(=O)NC2CCCC2)c1 (stereo unspecified)	i
Cc1cc(OCc2nnc(SC3CCCC3)n2-c2cccnc2)ccc1-c1ccc(S(C)(=O)=O)cc1	?
CCCSc1nc(NC2CC2c2ccc(F)c(F)c2)c2nnn(C3CC(OCCO)C(O)C3O)c2n1 (stereo unspecified)	?

Later entries
SMILES,Methyltransferases
CCCCN(CCCC)C(=O)CN1C[C@H](c2ccc3c(c2)OCO3)[C@@H](C(=O)O)[C@@H]1c1ccc(OC)cc1,i
COc1cnc(-c2ccc(Cn3c(CC(C)(C)C(=O)O)c(SC(C)(C)C)c4cc(OC[C@@H]5Cc6ccccc6N5C(C)=O)ccc43)cc2)nc1,+
COc1cc(C(=O)OC(COCCC(C)C)CN2CCOCC2)cc(OC)c1OC (stereo unspecified),i
O=C(Nc1ccc(OC(F)(F)F)cc1)c1sccc1NCc1ccnc2ccccc12,i
CCC(C)n1ncn(-c2ccc(N3CCN(c4ccc(OCC5COC(Cn6cncn6)(c6ccc(Cl)cc6Cl)O5)cc4)CC3)cc2)c1=O (stereo unspecified),?
CCOC(=O)C(CCc1ccccc1)NC(C)C(=O)N1Cc2ccccc2CC1C(=O)O (stereo unspecified),?
COC(=O)CC1CC(c2ccc(O)cc2)=NO1 (stereo unspecified),i
CC1(C)O[C@H]2CC(=O)OC[C@]23[C@H]2CC[C@@]4(C)[C@H](c5ccoc5)OC(=O)[C@H]5O[C@]54[C@]2(C)C(=O)C[C@@H]13,i
O=C(CNC(=O)c1cccc(C(F)(F)F)c1)N[C@@H]1CCN(Cc2ccc(Cl)cc2)C1,i
COc1cc(NS(=O)(=O)c2ccc(N)cc2)nc(C)n1,i
Oc1ccc(/C=C/c2cc(O)cc(O)c2)cc1,i
Cc1ccc2[nH]c(=O)c(C3=NN(C(=O)CCC(=O)O)C(c4ccc(Br)cc4)C3)c(-c3ccccc3)c2c1 (stereo unspecified),?
O=C(c1ccc(C(=O)N2CCC(N3CCCC3)CC2)c(Nc2ccccc2)c1)N1CCC(N2CCCC2)CC1,?
Cc1nc(N)sc1-c1ccnc(Nc2ccc(N3CCOCC3)cc2)n1,?
O=C(O)CC1CCC(c2ccc(NC(=O)c3nnc(Nc4ccc(F)c(F)c4)o3)cc2)CC1 (stereo unspecified),i

Going on with the list:
SMILES,Methyltransferases
CCN1CCN(Cc2ccc(Nc3ncc(F)c(-c4cc(F)c5nc(C)n(C(C)C)c5c4)n3)nc2)CC1,+
COc1cccc(C(=O)N2CCN(C(=O)COc3cccc(C)c3)CC2)c1OC,i
Cc1nc2cc(-c3cc(F)cc(C#N)c3)ccc2s1,i
Cc1ncc(Cl)cc1NCc1ccc(C(=O)NC(CC2CCCC2)C(=O)NC2CC2)s1 (stereo unspecified),i
O=C(Nc1cc2cc[nH]c2cn1)c1ccccc1,+
C=CC(=O)Nc1cccc(Nc2nc(Nc3ccc(N4CCN(C(C)=O)CC4)cc3OC)ncc2C(F)(F)F)c1,i
CCN(CC)CCNC(=O)c1cc(Cl)c(N)cc1OC,i
COc1ccccc1CN[C@H]1CCCN[C@H]1c1ccccc1,i
CNc1nc(Nc2ccc(C(=O)N3CCOCC3)cc2OC)ncc1Cl,i
O=C(NCCCn1ccnc1)c1cc(-c2ccco2)on1,i
Cc1cnc(NC(=O)Nc2cc(Br)c(C)cc2OCC2CNCCO2)cn1 (stereo unspecified),i
Cc1ccccc1C(=O)Nc1ccc(C(=O)N2CCCC(O)c3cc(Cl)ccc32)c(C)c1 (stereo unspecified),i
O=C(CCNNC(=O)c1ccncc1)NCc1ccccc1,i
CS(=O)(=O)Nc1ccc2oc3c(OC(F)F)ccc(C(=O)Nc4c(Cl)cncc4Cl)c3c2c1,+
O=C(CO)N1CCC(c2[nH]nc(-c3ccc(Cl)cc3)c2-c2ccncn2)CC1,i

Other structures
SMILES,Methyltransferases
COc1ccc(Cn2ccc3ccc(C(=O)NO)cc32)cc1,?
Fc1ccc(-c2nc(C3CCNCC3)sc2-c2ccnc(NC3CC3)n2)cc1,?
CN1CCOC(c2ccccc2)c2ccccc2C1 (stereo unspecified),i
CN1CCC(c2c[nH]c3ccc(NC(=O)c4ccc(F)cc4)cc23)CC1,+
CCn1c(N)c(C(=O)NC)c(=O)c2ccc(C#C[C@@](C)(O)COC)nc21,?
CC(=O)OCC1=C[C@@H]2OC(=O)C3=CO[C@@H](O[C@@H]4O[C@H](CO)[C@@H](O)[C@H](O)[C@H]4O)[C@H]1[C@@H]32,i
CCCCNc1ncc(C(=O)NCc2ccc(-n3ccnc3)cc2)c(NC2CCC(O)CC2)n1 (stereo unspecified),+
CN(C)C(=O)C(O)C(Cc1ccccc1)NC(=O)c1cc2cc(Cl)ccc2[nH]1 (stereo unspecified),i
Nc1cccc(CNC(=O)c2ccc(Oc3ccc(OCc4cccc(F)c4)cc3)nc2)c1,?
O=C1CCC(c2ccccc2)(C2CCN(Cc3ccc(I)cc3)CC2)C(=O)N1 (stereo unspecified),i
Cc1c(CN2CCN(C(=O)C(C)O)CC2)sc2c(N3CCOCC3)nc(-c3cnc(N)nc3)nc12 (stereo unspecified),?
COc1ccc(C2=NC(c3ccc(Cl)cc3)C(c3ccc(Cl)cc3)N2C(=O)N2CCNC(=O)C2)c(OC(C)C)c1 (stereo unspecified),?
Cc1cc(Cn2cnc3c2CC(C(=O)O)N(C(=O)C(c2ccccc2)c2ccccc2)C3)ccc1N(C)C (stereo unspecified),i
c1cc(OCCN2CCCCC2)cc(-c2n[nH]c3ccc(-c4ncn[nH]4)cc23)c1,+
COc1cc(Nc2nc3ccccc3nc2NS(=O)(=O)c2cccc(NC(=O)c3ccc(C)c(OC)c3)c2)cc(OC)c1,?

Not all compounds are listed (hit frequency here may not be typical).
